Screening data (PubChem BioAssay)
Mtb growth = Mycobacterium tuberculosis H37Rv growth inhibition, cell based, confirmatory dose response (AID 1949); most inactive calls were filed without a number and no value below 0 was filed; inhibition, % at 10 µg/mL, or IC50 in µg/mL where a hit was titrated; actives 1.6% (n = 100,000);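 active = confirmed in a dose series; inconclusive = about 50% or more but not retested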;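 also: bacteria grown 7 days with compound before Alamar blue readout; 0% = untreated bacteria and 100% = reference antibiotic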
Active calls of the source: *; i = inactive; ? = inconclusive. The list is partial; rates above refer to the full screens.

canonical_smiles	Mtb growth
COc1ccc(-n2nc3cc(C)c(N)c(Br)c3n2)cc1	i
O=C(Nc1ccc2snnc2c1)N1CCSCC1	3%
O=C(c1ccc(Cl)cc1)c1ccc(OCC(O)CN2CCN(Cc3ccccc3)CC2)cc1 (stereo not drawn)	2.8µg/mL*
CCCCC(=O)Nc1ccc(NC(=O)C(Cl)(Cl)Cl)cc1OC	i
COC(=O)c1sccc1NC(=S)Nc1ccc2c(c1)OCO2	i
COc1cc(C(=S)N2CCCCC2)ccc1OCC(=O)N1CCCC1	i
CS(=O)(=O)N(CC(=O)N1CCN(C(c2ccccc2)c2ccccc2)CC1)c1cccc(F)c1	i
O=S(=O)(Nc1ccc(-c2ccccc2)cc1)c1cccc2cccnc12	i
Cc1cc(=O)[nH]c(Nc2ccc(F)c(Cl)c2)n1	4%
Cn1c(CCc2ccccc2)nnc1SCC(=O)Nc1cccc(C(F)(F)F)c1	4%
CCOC(=O)C1=C(C)NC2=C(C(=O)c3ccccc32)C1c1cc(OC)c(OC)cc1OC (stereo not drawn)	i
CCOC(=O)c1ccc(Oc2nc(SC)nc(N(C)C)n2)cc1	0%
Cn1ccc(NC(=S)Nc2cccc3ccccc23)n1	i
O=S(=O)(NNC(=S)NCC1CCCO1)c1cc(Cl)ccc1Cl (stereo not drawn)	i
O=C(CSc1nnc(COc2ccccc2)n1-c1ccccc1)Nc1nc2ccccc2s1	i

Entries shown so far that contain fluorine:
canonical_smiles	Mtb growth
CS(=O)(=O)N(CC(=O)N1CCN(C(c2ccccc2)c2ccccc2)CC1)c1cccc(F)c1	i
Cc1cc(=O)[nH]c(Nc2ccc(F)c(Cl)c2)n1	4%
Cn1c(CCc2ccccc2)nnc1SCC(=O)Nc1cccc(C(F)(F)F)c1	4%

Next part
canonical_smiles	Mtb growth
COC(=O)Nc1nc2c(s1)CCCC2	i
CCc1ccc(-c2nnc(-c3ccc(Cl)cc3)o2)cc1	i
Cc1cc(C)nc(/N=C(/N)Nc2cccc(Cl)c2)n1	i
C=CCn1c(SCC(=O)Nc2ccc(C)cc2)nc2sc3c(c2c1=O)CC(C(C)C)OC3 (stereo not drawn)	i
Cc1c(C(C)NC(=S)Nc2ccc(Br)cc2Cl)cnn1C (stereo not drawn)	i
Nn1c(Cc2ccccc2)nc2c3c(sc2c1=O)CCCC3	i
CSc1nnc(-c2cccc([N+](=O)[O-])c2)n1-c1ccccc1	i
Cc1ccc(NC(=O)COc2ccc3ccccc3c2)cc1F	2%
O=C(CN(c1ccccc1)S(=O)(=O)c1ccc(Cl)cc1)Nc1ccc2c(c1)OCO2	i
CCC(C)c1ccc(NC(=S)N2CCN(Cc3cccc(F)c3)CC2)cc1 (stereo not drawn)	i
O=C(O)c1cccc(NC(=O)c2ccccc2NC(=O)c2ccccc2F)c1	i
COc1cccc(-c2nn(-c3ccccc3)cc2C(=O)N2CCCCC2)c1	i
CC(C(=O)NCC1(c2ccccc2)CCCC1)N1CCCC1 (stereo not drawn)	i
Cc1cccc(C)c1N1CCN(C(=O)N(c2ccccc2)c2ccccc2)CC1	i
CCN(CC(=O)NCCOC)S(=O)(=O)c1ccc(C)cc1	i
COc1ccc(-c2nnnn2C)cc1S(=O)(=O)Nc1ccc(I)cc1	i
CCOC(=O)CCc1c(C)c2ccc(OCC(=O)c3ccc(F)cc3)cc2oc1=O	i
C=CCc1cc(OC)ccc1OCCOCCN1CCCC(C)C1 (stereo not drawn)	i
COC(=O)CN1C=C(C(=O)OC)C(c2ccc(Cl)cc2Cl)C(C(=O)OC)=C1	i
CSc1cccc(NC(=O)C2CCN(C(=O)c3ccccc3C)CC2)c1	i
CC(C)(C)NS(=O)(=O)c1ccc(NC(=O)CC(c2ccccc2)c2ccccc2)cc1	3%
COC(=O)c1ccc(NC(=S)NN2CCOCC2)cc1	i
CCOc1ccc(NC(=O)C23CCC(C)(C(=O)C2)C3(C)C)cc1 (stereo not drawn)	i
COc1ccc(NC(=S)NC(=O)c2ccc(C)cc2C)c([N+](=O)[O-])c1	i
COc1cccc(C(=O)Oc2cc3oc(=O)cc(C)c3cc2Cl)c1	i
CCOc1ccccc1NC(=O)Cn1cnc2ccccc2c1=O	2%
O=C(NC(=S)Nc1ccc(NC(=O)c2ccco2)cc1)c1ccc(Cl)c(Cl)c1	i
COc1cc(C2NC(=O)NC(C)=C2C(=O)Nc2ccccc2F)ccc1O (stereo not drawn)	i
CCc1ccc2oc(C(=O)NCc3ccc(OC)cc3)c(C)c2c1	i
CCOc1ccc(N2CC(C(=O)Nc3ccc(C)cc3Br)CC2=O)cc1 (stereo not drawn)	i
N=C1C(c2nc3ccccc3[nH]2)=C(O)CN1c1ccccc1	48%
O=c1c2cc3c(=O)n(CC4CCCO4)c(=O)c3cc2c(=O)n1CC1CCCO1 (stereo not drawn)	i
Cc1[nH]c2ccccc2c(=O)c1C(=O)/C=C/c1ccccc1	?
CC(=O)Nc1ccc(Oc2nc(C)cc(C)n2)cc1	i
COC(=O)COc1ccc(S(=O)(=O)Nc2ccc(OCc3ccccc3)cc2)cc1Cl	i
COC(=O)c1ccccc1NC(=O)C(=O)NCc1ccco1	i
COc1ccc(-n2c(SCC(=O)Nc3ccc(C)cc3Br)nnc2-c2ccccc2)cc1	i
O=S(=O)(Nc1nnc(Cc2ccc(Cl)cc2)s1)c1ccc(Cl)cc1	i
O=C1Nc2ccc(I)cc2C1=O	4%
Cc1ccccc1C(=O)NC(=S)Nc1ccc(I)cn1	i
CN(C(=O)n1cnc2ccccc21)c1ccccc1	i
CCc1ccc(-n2c(C)cc(C=NO)c2C)cc1	17%
CC(=O)COc1ccccc1OC(=O)c1ccc(Cl)cc1	3%
Cc1cc(C)c(OCCCN2CCCCCC2)c(Cl)c1	0%
CS(=O)(=O)N(CC(=O)N1CCCC1)c1ccccc1F	i
C=CCn1c(SCCC(=O)Nc2ccc(F)cc2)nc2sc(C)c(C)c2c1=O	1%
Cc1nnc(SCC(=O)N2c3ccccc3Sc3ccccc32)n1N	i
COc1ccc(C)cc1NC(=O)c1ccc(NC(C)=O)cc1	i
CCOCCCNC(=O)Cc1ccc(Br)cc1	i
CC(=O)c1cccc(NS(=O)(=O)N(C)C)c1	i
O=C(O)c1cccc(NC(=S)NC(=O)c2cc(Cl)ccc2Cl)c1	i
CC(=O)Nc1cccc(-c2nnc(SCc3cccc(Cl)c3)n2C)c1	i
CC(=O)Nc1ccc(-c2csc(-c3cccnc3)n2)cc1	i
Cn1c(SCC(=O)NCc2ccc3c(c2)OCO3)nnc1-c1c[nH]c2ccccc12	1%
CC(C)c1ccc(C(=O)NCCc2cccc(Cl)c2)cc1	13%
COc1cccc(C=O)c1OCC(=O)O	i
COc1cc(NC(=O)c2ccccc2Cl)ccc1NC(=O)C(C)C	i
CCOC(=O)c1c(NC(=O)CSc2ncccn2)sc2c1CCCC2	i
CCCC(=O)NC(c1ccccc1OC)c1ccc2cccnc2c1O (stereo not drawn)	i
Cn1c(SCCSc2nnc(-c3ccccc3)n2C)nnc1-c1ccccc1	i

(listing goes on)
canonical_smiles	Mtb growth
CC1=[N+]([O-])C(C)(C)CC(C)c2ccccc21 (stereo not drawn)	9%
COc1cc(NC(=S)NNC(=O)C(C)(C)O)cc(OC)c1	i
CN(CC(=O)Nc1cccc2c1CCCC2)S(=O)(=O)c1ccc(Cl)cc1	i
Cc1cccc(N2CCN(C(=S)Nc3ccc([N+](=O)[O-])cc3)CC2)c1C	i
O=C(CN1C(=O)COc2ccc(Cl)cc21)N1CCc2ccccc21	i
Clc1ccc(SCCn2ccnc2)cc1	i
Cc1cc(C(=O)NC(C)C2CCCO2)sc1-c1ccccc1 (stereo not drawn)	i
Cc1ccc(OCCN2CCN(c3nc(NCc4ccccc4)c4ccccc4n3)CC2)cc1	1.4µg/mL*
CCn1c(SCC(=O)Nc2nc(-c3ccccc3)c(C)s2)nnc1-c1ccccc1	i
Cc1ccc(S(=O)(=O)NC(=NC(C)C)c2ccccc2)cc1	i
O=C(c1ccc(NS(=O)(=O)c2cccc3cccnc23)cc1)N1CCCCC1	i
Nc1nc(SCC(=O)NC2CCCCC2)n[nH]1	i
C=CCn1c(SCC(=O)Nc2cccc(C(F)(F)F)c2)nnc1-c1ccccc1Cl	i
CCOC(=O)c1c(NC(=O)CN2C(=O)c3ccccc3C2=O)sc(C)c1C	i
COc1ccc(C(=O)N2CCC(C(=O)Nc3ccc(Br)cc3)CC2)cc1OC	i
COc1ccc(C2(C(=O)N3CCCC3)CCCC2)cc1OC	i
CC(=O)c1ccc(NC(=S)N2CCN(Cc3ccc(Cl)cc3Cl)CC2)cc1	i
O=C(CSc1nc2ccc([N+](=O)[O-])cc2s1)N1CCCC1	i
Cc1cc(Cl)c(OCCCN2CCOCC2)c(Br)c1	i
COc1ccc(C(=O)Oc2ccccc2[N+](=O)[O-])cc1Br	i
CC1=NN(c2ccc(F)c(Cl)c2)C(=O)C1	0%
CCN(CC)CCn1cnc2c(=O)oc3ccccc3c21	i
COc1ccc(S(=O)(=O)N2CCCC2C(=O)Nc2ccc(C)cc2C)cc1 (stereo not drawn)	3%
CCOC(=O)c1ccc(NC(=O)CC2OCCN(CC)C2=O)cc1 (stereo not drawn)	i
CC1=C(C(=O)Nc2ccccn2)C(c2ccc(Cl)cc2Cl)NC(=S)N1 (stereo not drawn)	i
Cc1cccc(C)c1NC(=O)CN(c1cccc(Cl)c1)S(=O)(=O)c1ccccc1	i
COc1ccc(C(=O)NNC(=O)Nc2ccc(Cl)c(Cl)c2)c(OC)c1	i
Cc1ccc(OCCCn2ccnc2)c(Br)c1	i
CN1CCN(C(=O)c2cccc(S(=O)(=O)N3CCOCC3)c2)CC1	i
COc1cccc(NC(=O)CSc2nnc(-c3ccccc3C)n2C)c1	i

Single entries from the list:
Under Mtb growth, `CC1=NN(c2ccc(F)c(Cl)c2)C(=O)C1` is entered as 0%
Under Mtb growth, `COc1ccc(S(=O)(=O)N2CCCC2C(=O)Nc2ccc(C)cc2C)cc1` (stereo not drawn) is entered as 3%

Later entries.
canonical_smiles	Mtb growth
Cc1cc(OC(C)C(=O)Nc2ccccc2[N+](=O)[O-])ccc1Cl (stereo not drawn)	i
CCn1c(=N)c(C(N)=S)cc2c(=O)n3cccc(C)c3nc21	i
Cc1csc(NC(=O)c2sc3nc4c(c(C(F)(F)F)c3c2N)CCCCC4)n1	2%
CC(C)(C)c1ccc(OCC(=O)Nc2ccc(S(=O)(=O)N3CCCCCC3)cc2)cc1	i
COc1cc(C(=O)Nc2ccc(Cl)cc2)c(Br)c(OC)c1OC	i
C=CCSc1[nH]c(=O)c(C(=O)OCC)cc1C(N)=O	4%
O=C(COc1ccc2c(-c3cccc([N+](=O)[O-])c3)cc(=O)oc2c1)c1ccc(F)cc1	i
CCn1c(NCc2cccc(OC)c2OC)nc2ccccc21	i
CC(=O)Oc1ccc(C(=O)NCCC2=CCCCC2)cc1	i
Cc1ccc(C(=O)Oc2ccc(C(c3cn[nH]c3C)c3c(C)[nH][nH]c3=O)cc2)cc1 (stereo not drawn)	i
COC(=O)Cc1ccc(NS(=O)(=O)c2ccc(Cl)cc2)cc1	i
Cc1cc(C)c(C#N)c(SCC(O)CSc2ccc(C(C)(C)C)cc2)n1 (stereo not drawn)	4%
Cc1ccccc1N(CC(=O)N(C)C)S(C)(=O)=O	i
CCOC(=O)Cc1csc(NC(=O)CSc2nc(N)c3c4c(sc3n2)CCCC4)n1	46%
CCCCOc1ccc(C(=O)Nc2ccc(Cl)c(C)c2Cl)cc1	0%
COCCNc1oc(-c2cccc(Cl)c2)nc1C#N	i
COc1cc(C)c(S(=O)(=O)N2CCN(c3ccccc3OC)CC2)cc1C	i
Cc1cc2ccccc2n2c(SCC(=O)Nc3cccc(C(F)(F)F)c3)nnc12	3%
Cn1nnc2cc(NC(=O)Nc3nccs3)ccc21	i
CCc1nc(C)cn1S(=O)(=O)c1cc(OC)c(C)cc1C	1%
CCOC(=O)c1cnc2c(OC)cccc2c1Nc1ccc(C(=O)O)cc1	3%
Cc1oc(CC(C)C)c(CN2CCCC2)c1C(=O)O	i
N#CC1=C(N)Oc2cc(N)ccc2C1c1cccc(OCc2ccccc2)c1 (stereo not drawn)	2%
O=C(c1ccc(N2C(=O)C3C4C=CC(C4)C3C2=O)cc1)N1CCCCCC1 (stereo not drawn)	i
O=C(Nc1ccccc1C(=O)N1CCCC1)c1ccc(I)cc1	2%
O=C(NC1CCS(=O)(=O)C1)C1CCCCC1 (stereo not drawn)	i
COC(=O)C1=C(C)NC(=O)NC1c1cccc(F)c1 (stereo not drawn)	i
COC(=O)C(Cc1ccccc1)NS(=O)(=O)c1ccc(C)cc1 (stereo not drawn)	3%
C=CCn1c(SCC(=O)OCC)nc2sc3c(c2c1=O)CCCC3	10%
CNC(=O)c1[nH]cnc1C(=O)Nc1ccccc1C	45%
CC(C)c1ccc(C(=O)Nc2ccc(CN3CCOCC3)cc2)cc1	i
CC(C)(C)C(=O)Oc1ccc(C(=O)OCc2ccccc2)cc1	3%
O=C(Nc1cccc(F)c1)c1ccccc1-c1ccccc1	i
Cc1ccc(-c2nnc(SCC(=O)Nc3ccc(I)cc3C)n2C)cc1	4%

Structural class: those above containing a tert-butyl group
canonical_smiles	Mtb growth
CC(C)(C)NS(=O)(=O)c1ccc(NC(=O)CC(c2ccccc2)c2ccccc2)cc1	3%
CC(C)(C)c1ccc(OCC(=O)Nc2ccc(S(=O)(=O)N3CCCCCC3)cc2)cc1	i
Cc1cc(C)c(C#N)c(SCC(O)CSc2ccc(C(C)(C)C)cc2)n1 (stereo not drawn)	4%
CC(C)(C)C(=O)Oc1ccc(C(=O)OCc2ccccc2)cc1	3%
